Screens deposited in PubChem by National Center for Advancing Translational Sciences (NCATS).
miR-21 reporter – miR-21 reporter, rising signal | HeLa miR-21 FLuc reporter, luciferase, 48 h | Potency, µM (top dose mostly 38.3 µM), for inactives: top-dose reporter change, positive = more light | 340,000 tested, under 10 active; active = well fitted rising curve with a large enough effect; inconclusive = small, poorly fitted or top-dose-only effect; inactive = no such curve, though single readings can be large or run the other way;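 also: % of control where 0% means no effect; miR-21 action dims this reporter so a rising signal means less miR-21 action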
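HeLa miR-21-FLuc reporter line, endogenous miR-21; 2000 cells/well in DMEM/10% FBS; compound titration up to ~40uM final, 48 h, 37 degree Celsius; luciferase detection reagent, 15 min lysis, CCD luminescence.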
Rango-impB inh – inhibitors of Rango-importin beta complex formation. 0.031% of 340,000 active. Potency, µM (top dose mostly 92.2 µM), for inactives: at the top dose inhibition of complex formation. Q14974. AID 540263. Rango CFP/YFP FRET sensor + importin beta, 45 min; active = rising FRET ratio curve, often small or poorly fitted; inconclusive = mostly compound fluorescence or quenching in the first reads; inactive = flat curves in all reads;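 also: potency is read from the fitted curve at half-maximal effect; 0% = DMSO wells and 100% = buffer wells lacking importin beta; nearly all actives have a fitted effect of over 15% in size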
Target sequence (Q14974 whole entry, looked up): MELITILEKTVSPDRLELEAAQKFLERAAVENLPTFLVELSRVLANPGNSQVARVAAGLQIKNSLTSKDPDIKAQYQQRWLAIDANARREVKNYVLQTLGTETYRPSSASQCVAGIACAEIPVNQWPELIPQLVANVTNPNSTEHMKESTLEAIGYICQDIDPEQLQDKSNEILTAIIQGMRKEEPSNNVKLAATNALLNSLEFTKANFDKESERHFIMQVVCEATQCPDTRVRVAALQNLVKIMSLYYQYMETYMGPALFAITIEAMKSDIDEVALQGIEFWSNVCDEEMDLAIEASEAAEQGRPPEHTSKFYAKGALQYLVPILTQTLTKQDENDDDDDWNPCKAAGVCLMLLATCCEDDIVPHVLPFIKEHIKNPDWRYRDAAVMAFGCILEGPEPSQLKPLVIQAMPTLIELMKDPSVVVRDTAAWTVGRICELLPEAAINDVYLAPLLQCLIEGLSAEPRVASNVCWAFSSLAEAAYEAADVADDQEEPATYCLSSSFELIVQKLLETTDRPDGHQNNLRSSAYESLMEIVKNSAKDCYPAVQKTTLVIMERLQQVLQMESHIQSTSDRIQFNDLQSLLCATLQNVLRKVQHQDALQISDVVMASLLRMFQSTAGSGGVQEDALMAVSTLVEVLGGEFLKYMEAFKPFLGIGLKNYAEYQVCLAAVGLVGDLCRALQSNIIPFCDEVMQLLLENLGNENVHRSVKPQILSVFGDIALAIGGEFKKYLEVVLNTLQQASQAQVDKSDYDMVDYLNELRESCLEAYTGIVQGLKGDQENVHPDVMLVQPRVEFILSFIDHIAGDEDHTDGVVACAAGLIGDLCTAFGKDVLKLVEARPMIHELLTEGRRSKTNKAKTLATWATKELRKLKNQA
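FRET biosensor Rango (snurportin 1 IBB between N-terminal EYFP and C-terminal Cerulean), 50 nM in PBS/1 mM DTT/0.02% Tween-20/0.1% BSA, preincubated 5 min RT with compound; 0.125 microM importin beta added, 45 min RT, CFP/YFP FRET ratio read.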
GLA inh pH 4.5 – alpha-galactosidase A (human) inhibition, pH 4.5; P06280; purified enzyme, 4-MU-alpha-Gal fluorescence, pH 4.5; activity change, negative = inhibition, % at 105 µM; 230,000 tested, under 10 active; AID 1467; inconclusive = small, poorly fitted or top-dose-only inhibition, or a rising curve; inactive = flat fitted curve, though single readings scatter; no compound was filed as active;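 also: 0% = full activity with enzyme and -100% = basal without enzyme; dose as in the result columns while the protocol names 77 µM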
Rango dissoc inh – prevents RanGTP from dissociating the Rango-importin beta complex; Biochemical FRET Rango-importin beta, RanGTP-induced dissociation; O95149+P62826; 0.071% of 340,000 active; Potency, µM (top dose mostly 46.1 µM), for the others: at the highest dose activity change, negative = inhibition; active means falling FRET ratio curve, often poorly fitted, with flat reads before Ran was added; inconclusive means other falling curves, or compound fluorescence or quenching; inactive means flat or rising ratio curve;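 also: potency is read from the fitted curve at half-maximal effect; % of control where 0% means no effect; nearly all actives have a fitted effect of over 45% in size; -100% = wells without RanGTP and RCC1; the record marks most hits as doubtful in a second field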
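Compounds preincubate 5 min with complex of recombinant Rango and importin beta in PBS with 1 mM DTT. Ran (0.6 uM) loaded with 2 mM GTP plus 0.2 uM RCC1 starts dissociation; FRET is recorded 45 min later.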
* = called active by the depositor. Some of the compounds tested; the hit share may differ from the screen's.

What do the screens show for `O=C(c1ccc([N+](=O)[O-])cc1)N(Cc1ccc(Cl)cc1Cl)N1C(=O)CCCC1=O`?
miR-21 reporter: -1%; Rango-impB inh: -1.3%; GLA inh pH 4.5: -2; Rango dissoc inh: 0%

Results for CCCn1c(=O)c(Br)cn(-c2ccccc2C)c1=O ?
miR-21 reporter: -10%; Rango-impB inh: -1.8%; GLA inh pH 4.5: -18; Rango dissoc inh: 3%

Results for COc1ccc(CNC(=O)CCNC(=O)c2ccc(C(C)(C)C)cc2)cc1OC ?
Rango-impB inh: -2.8%; Rango dissoc inh: 10%

What do the screens show for `CC(=O)N(CN1C(=O)c2ccc([N+](=O)[O-])cc2C1=O)c1ccc(F)cc1`?
miR-21 reporter: 0%; Rango-impB inh: -4.9%; GLA inh pH 4.5: -3; Rango dissoc inh: -8%

What do the screens show for `Cc1ccc(OCCC(=O)OCC(=O)Nc2ccc(F)cc2)cc1`?
Rango-impB inh: -0.4%; Rango dissoc inh: 3%

What do the screens show for `NNC(=O)c1ccc(COc2ccc(Br)cc2)o1`?
miR-21 reporter: 0%; Rango-impB inh: 2.1%; Rango dissoc inh: 14%

What do the screens show for `O=c1ccc2cc(S(=O)(=O)Nc3ccccc3F)ccc2o1`?
miR-21 reporter: -5%; Rango-impB inh: -0.3%; Rango dissoc inh: -3%

How did COC(=O)c1ccccc1S(=O)(=O)N1CCC(C(=O)OC(C)C(=O)NC(N)=O)CC1 (stereo unspecified) do in these assays?
miR-21 reporter: -1%; Rango-impB inh: -0.2%; GLA inh pH 4.5: -5; Rango dissoc inh: 11%

How did COC(=O)c1ccccc1S(=O)(=O)N(Cc1cc2ccc(OC)cc2[nH]c1=O)CC1CCCO1 (stereo unspecified) do in these assays?
miR-21 reporter: -2%; Rango-impB inh: 0.2%; GLA inh pH 4.5: -4; Rango dissoc inh: 0%

What do the screens show for `Cc1ccc(S(=O)(=O)N(C)c2nc3ccccc3[nH]c2=S)cc1`?
miR-21 reporter: -7%; Rango-impB inh: -2.6%; GLA inh pH 4.5: 4; Rango dissoc inh: -7%

How did CCN(CC)C(=O)c1cc2cc(Br)ccc2oc1=O do in these assays?
miR-21 reporter: -5%; Rango-impB inh: inconclusive; GLA inh pH 4.5: 4; Rango dissoc inh: -16%

Results for O=[N+]([O-])c1ccccc1-c1ccc(/C=N/n2cnnc2)o1 ?
miR-21 reporter: -13%; Rango-impB inh: -3.4%; GLA inh pH 4.5: -17; Rango dissoc inh: -6%

How did Cc1nc(SCCC(C)C)c([N+](=O)[O-])[nH]1 do in these assays?
miR-21 reporter: -8%; Rango-impB inh: -2.3%; GLA inh pH 4.5: 10; Rango dissoc inh: 20%

How did COC(=O)CNC(=O)CN(c1ccc(OC)cc1OC)S(=O)(=O)c1ccccc1 do in these assays?
Rango-impB inh: -3.3%; Rango dissoc inh: 8%

What do the screens show for `CN(C1CCCCC1)S(=O)(=O)c1ccc(-c2ccccn2)s1`?
miR-21 reporter: 3%; Rango-impB inh: 1.2%; GLA inh pH 4.5: -6; Rango dissoc inh: -16%

How did CC1=NN(C(=O)c2ccncc2)C(=O)C1N=Nc1ccc2ccccc2c1 (stereo unspecified) do in these assays?
Rango-impB inh: inconclusive; Rango dissoc inh: inconclusive

Results for Cc1ccc(CSCC(=O)N(C)CC(=O)Nc2ccc(Cl)c(Cl)c2)cc1 ?
Rango-impB inh: -2.3%; Rango dissoc inh: -6%

How did CC1CCN(C(=O)CSCc2ccc(Cl)cc2)CC1 do in these assays?
miR-21 reporter: -60%; Rango-impB inh: 0.8%; GLA inh pH 4.5: -4; Rango dissoc inh: -16%

Results for CN(C)c1ccc(/C=C/c2ccc3ccccc3n2)cc1 ?
miR-21 reporter: inconclusive; Rango-impB inh: inconclusive; GLA inh pH 4.5: -9; Rango dissoc inh: inconclusive

How did O=C(NCC1CCCN1S(=O)(=O)c1cccs1)c1ccc(Cl)cc1 (stereo unspecified) do in these assays?
Rango-impB inh: 13%; Rango dissoc inh: 6%

3 entries from above, ordered by number of heavy atoms, high to low:
How did CC1=NN(C(=O)c2ccncc2)C(=O)C1N=Nc1ccc2ccccc2c1 (stereo unspecified) do in these assays?
Rango-impB inh: inconclusive; Rango dissoc inh: inconclusive

Results for Cc1ccc(CSCC(=O)N(C)CC(=O)Nc2ccc(Cl)c(Cl)c2)cc1 ?
Rango-impB inh: -2.3%; Rango dissoc inh: -6%

Results for CN(C)c1ccc(/C=C/c2ccc3ccccc3n2)cc1 ?
miR-21 reporter: inconclusive; Rango-impB inh: inconclusive; GLA inh pH 4.5: -9; Rango dissoc inh: inconclusive

Next part
Results for CCOC(=O)C1=C(COC(=O)CCC(=O)c2ccc(C)cc2)NC(=O)NC1C (stereo unspecified) ?
Rango-impB inh: -4.9%; Rango dissoc inh: inconclusive

What do the screens show for `CN(CC(=O)N1CCN(c2ccccn2)CC1)S(=O)(=O)c1ccc2ccccc2c1`?
miR-21 reporter: 3%; Rango-impB inh: -1.9%; GLA inh pH 4.5: -6; Rango dissoc inh: 11%

Results for CC(=O)c1cc(C#N)c(SCC(=O)OC(C)C)nc1C ?
miR-21 reporter: -24%; Rango-impB inh: -3.7%; GLA inh pH 4.5: 0; Rango dissoc inh: 0%

What do the screens show for `Clc1ccc(CSc2nnc3c(n2)[nH]c2ccccc23)cc1`?
miR-21 reporter: -2%; Rango-impB inh: 0.7%; GLA inh pH 4.5: -5; Rango dissoc inh: -22%

How did CCCC(c1c(C)n(C)n(-c2ccccc2)c1=O)c1c(C)n(C)n(-c2ccccc2)c1=O do in these assays?
miR-21 reporter: -7%; Rango-impB inh: 0.0%; GLA inh pH 4.5: 4; Rango dissoc inh: -13%

How did COc1ccc(C(=O)N2CCN(C(=O)C3COc4ccccc4O3)CC2)cc1OC (stereo unspecified) do in these assays?
miR-21 reporter: -6%; Rango-impB inh: -4.8%; Rango dissoc inh: 10%

How did CC(C)CC1C(C#N)=C(N)Oc2n[nH]c(-c3cccs3)c21 (stereo unspecified) do in these assays?
miR-21 reporter: -1%; Rango-impB inh: -2.9%; GLA inh pH 4.5: 4; Rango dissoc inh: 1%

Results for COc1cc(NC(=S)Nc2ncccc2C)cc(OC)c1OC ?
miR-21 reporter: -28%; Rango-impB inh: 0.3%; GLA inh pH 4.5: 1; Rango dissoc inh: 1%

Results for CCc1cc(C(=O)NCC2CCCO2)sc1C (stereo unspecified) ?
miR-21 reporter: -37%; Rango-impB inh: -3.6%; Rango dissoc inh: 2%

Results for Cc1ccc(-c2nnc(-c3cccnc3)o2)cc1 ?
miR-21 reporter: -62%; Rango-impB inh: 0.8%; Rango dissoc inh: 10%

How did CC(=O)N1CCN(CCN=CC2=C(O)CC(c3cccs3)CC2=O)CC1 (stereo unspecified) do in these assays?
miR-21 reporter: 1%; Rango-impB inh: -3.8%; GLA inh pH 4.5: 4; Rango dissoc inh: 4%

How did COc1ccc(NC(=O)c2cc3cc(C)ccc3n2C)c(OC)c1 do in these assays?
miR-21 reporter: -11%; Rango-impB inh: 3.2%; Rango dissoc inh: 0%

Results for CN(CC(=O)Nc1ccccc1Cl)C(=O)COC(=O)CN1C(=O)NC2(CCCC2)C1=O ?
miR-21 reporter: -3%; Rango-impB inh: -3.2%; Rango dissoc inh: 0%

How did O=C(/C=C/c1c(F)cccc1Cl)Nc1nn[nH]n1 do in these assays?
miR-21 reporter: 4%; Rango-impB inh: 3.2%; GLA inh pH 4.5: -5; Rango dissoc inh: -5%

What do the screens show for `O=S(=O)(CCSc1ccccn1)c1nc2ccccc2s1`?
miR-21 reporter: inconclusive; Rango-impB inh: -0.1%; GLA inh pH 4.5: -10; Rango dissoc inh: -4%

How did O=c1cc(N2CCC(Cc3ccccc3)CC2)[nH]c(=O)n1C1CCCCC1 do in these assays?
miR-21 reporter: 2%; Rango-impB inh: -0.8%; GLA inh pH 4.5: 3; Rango dissoc inh: 5%

Results for Cc1cccc(NC(=O)CSc2nc3c(c(=O)[nH]2)CCC3)c1C ?
miR-21 reporter: 0%; Rango-impB inh: -0.4%; GLA inh pH 4.5: 1; Rango dissoc inh: -3%

How did O=[N+]([O-])c1ccc(CSc2nnc(-c3cnccn3)o2)cc1 do in these assays?
miR-21 reporter: -10%; Rango-impB inh: 0.2%; GLA inh pH 4.5: -6; Rango dissoc inh: 1%

How did O=C(Nc1cccc(F)c1)c1ccc(Cn2cc([N+](=O)[O-])cn2)o1 do in these assays?
miR-21 reporter: 3%; Rango-impB inh: -1.2%; GLA inh pH 4.5: 2; Rango dissoc inh: 15%

Results for Cc1ccc(C(=O)C2=C(O)C(=O)N(CCCN(C)C)C23C(=O)N(C)c2ccccc23)o1 (stereo unspecified) ?
miR-21 reporter: 3%; Rango-impB inh: -1.4%; GLA inh pH 4.5: -6; Rango dissoc inh: 0%

What do the screens show for `Cc1ccc(NC(=S)N/N=C/c2cccn2Cc2ccccc2F)cc1`?
miR-21 reporter: -7%; Rango-impB inh: 1.8%; GLA inh pH 4.5: 2; Rango dissoc inh: 8%

How did CCOC(=O)COc1nc(-c2ccco2)cc(-c2ccco2)c1C#N do in these assays?
miR-21 reporter: -2%; Rango-impB inh: inconclusive; GLA inh pH 4.5: inconclusive; Rango dissoc inh: inconclusive

Results for Cc1ccc(C)c(CN2CCN(c3ncccn3)CC2)c1 ?
miR-21 reporter: 3%; Rango-impB inh: 4.9%; Rango dissoc inh: 8%

Results for CNCCOCC(O)CSc1ccccc1 (stereo unspecified) ?
miR-21 reporter: -4%; Rango-impB inh: 0.1%; GLA inh pH 4.5: 6; Rango dissoc inh: 2%

How did Cc1c(C(=O)/C=C/N(C)C)nnn1-c1ccc(Cl)c(Cl)c1 do in these assays?
miR-21 reporter: -3%; Rango-impB inh: inconclusive; GLA inh pH 4.5: 1; Rango dissoc inh: inconclusive

What do the screens show for `CCSCCOC(=O)C1=C(C)NC(=O)NC1c1cc(OC)ccc1OC` (stereo unspecified)?
miR-21 reporter: -5%; Rango-impB inh: -2.9%; GLA inh pH 4.5: 9; Rango dissoc inh: -1%

What do the screens show for `Cc1onc(-c2ccccc2Cl)c1C(=O)OCC(=O)c1ccc2c(c1)OCCO2`?
miR-21 reporter: 8%; Rango-impB inh: 0.0%; GLA inh pH 4.5: -3; Rango dissoc inh: -7%

What do the screens show for `CC(C)[C@H](CN1CCC[C@H]1CN1C(N)=NC[C@@H]1Cc1ccccc1)N1C[C@@H](Cc2ccccc2)N(CCc2ccc(Cl)c(Cl)c2)C1=N`?
Rango-impB inh: 7.3%; Rango dissoc inh: -2%

What do the screens show for `CCOc1cc(N2CCOCC2)c(OCC)cc1NC(=O)CSc1nccc(C)n1`?
miR-21 reporter: -7%; Rango-impB inh: 4.8%; GLA inh pH 4.5: -5; Rango dissoc inh: -13%

What do the screens show for `CCOCCCNC(=O)C1CCCCN1S(=O)(=O)c1ccc(F)cc1` (stereo unspecified)?
miR-21 reporter: -2%; Rango-impB inh: 2.4%; GLA inh pH 4.5: 2; Rango dissoc inh: -3%

How did COc1ccc2c(CC(=O)OCC(=O)c3ccccc3OC)coc2c1 do in these assays?
miR-21 reporter: -4%; Rango-impB inh: -2.8%; GLA inh pH 4.5: 1; Rango dissoc inh: -1%

How did CC(C)c1ccc(NC2CCCN(C(=O)c3cc(C(C)C)nc(N)n3)C2)cc1 (stereo unspecified) do in these assays?
miR-21 reporter: -2%; Rango-impB inh: 2.2%; Rango dissoc inh: -15%

How did CC(C)(C)c1cc(N)on1 do in these assays?
miR-21 reporter: 2%; Rango-impB inh: 1.8%; GLA inh pH 4.5: 6; Rango dissoc inh: -1%

Results for Cc1ccc(S(=O)(=O)N(CC(=O)NC2CCCC2)c2cccc(C)c2)cc1 ?
miR-21 reporter: 2%; Rango-impB inh: inconclusive; GLA inh pH 4.5: -6; Rango dissoc inh: -16%

Quoted from above for reference:
How did CC(C)CC1C(C#N)=C(N)Oc2n[nH]c(-c3cccs3)c21 (stereo unspecified) do in these assays?
miR-21 reporter: -1%; Rango-impB inh: -2.9%; GLA inh pH 4.5: 4; Rango dissoc inh: 1%

Results for COc1cc(NC(=S)Nc2ncccc2C)cc(OC)c1OC ?
miR-21 reporter: -28%; Rango-impB inh: 0.3%; GLA inh pH 4.5: 1; Rango dissoc inh: 1%

Results for CCc1cc(C(=O)NCC2CCCO2)sc1C (stereo unspecified) ?
miR-21 reporter: -37%; Rango-impB inh: -3.6%; Rango dissoc inh: 2%
